Source: PubChem
HPGD inh: blocks human HPGD enzyme activity; P15428; purified HPGD, NADH fluorescence kinetic, PGE2 substrate; Potency, µM, without a hit: at the top dose activity change, negative = inhibition, hits mostly inhibitors; 4.3% of 150,000 active; AID 894; active = well fitted inhibition curve with a large enough effect (not every such curve was filed as active); inconclusive = small, poorly fitted or top-dose-only effect, or another doubt; inactive = no such curve, though single readings can be large or run the other way;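 further: top concentration of the series not given in the record; plate controls included wells without enzyme; inactives centre near -10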
Target sequence (P15428 whole entry, looked up): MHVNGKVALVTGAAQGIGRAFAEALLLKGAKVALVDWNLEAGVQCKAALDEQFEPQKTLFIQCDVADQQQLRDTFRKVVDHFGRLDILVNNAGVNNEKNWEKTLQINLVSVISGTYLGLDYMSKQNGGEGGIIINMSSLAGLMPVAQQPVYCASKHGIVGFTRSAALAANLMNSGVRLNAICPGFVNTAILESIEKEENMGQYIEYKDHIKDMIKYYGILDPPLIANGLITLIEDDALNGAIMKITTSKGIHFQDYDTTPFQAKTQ
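20 nM HPGD preincubated 15 min at room temperature with compound in 50 mM Tris-HCl pH 8, 0.01% Tween 20. Started with 1 mM NAD+ and 30 uM prostaglandin E2; NADH fluorescence (360/450 nm) read 5 times over 30-s intervals, last minus first.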
* = called active by the depositor; ? = inconclusive; & = joins results of further samples; ! = not active in a repeat. On the % scale 0 is the no-effect control and ±100 the full control effect; potency means the concentration at half of the fitted maximal effect. An excerpt; the hit share may differ from the screen's.

(1) COc1cc2nc(N3CCN(C(=O)[C@@H]4COc5ccccc5O4)CC3)nc(N)c2cc1OC
  HPGD inh = ?

(2) COc1cc(N)c(Cl)cc1C(=O)N[C@H]1CCN(CCCOc2ccc(F)cc2)C[C@H]1OC
  HPGD inh = -7%

(3) Cc1cc(=O)oc2cc(O)ccc12
  HPGD inh = ?

(4) C=Cc1ccccc1
  HPGD inh = -4%

(5) C=C1c2cccc(O)c2C(O)=C2C(=O)[C@@]3(O)C(O)=C(C(N)=O)C(=O)[C@@H](N(C)C)[C@@H]3[C@@H](O)[C@H]12
  HPGD inh = 10µM*

(6) CC1(C)O[C@@H]2C[C@H]3[C@@H]4C[C@H](F)C5=CC(=O)C=C[C@]5(C)[C@@]4(F)[C@@H](O)C[C@]3(C)[C@]2(C(=O)CO)O1
  HPGD inh = -2%

(7) Cn1ccc2cc3c(cc21)CCN3C(=O)Nc1cccnc1
  HPGD inh = -8%&-22%

(8) CCCCOc1cc(C(=O)OCCN(CC)CC)ccc1N
  HPGD inh = -4%

(9) CCc1ccccc1OC[C@@H](O)CN[C@H]1CCCc2ccccc21
  HPGD inh = -11%

(10) CC[C@@]12CCCN3CCc4c(n(c5ccccc45)[C@](O)(C(=O)OC)C1)[C@H]32
  HPGD inh = -14%&1%&-13%

(11) CC(C)(CO)[C@H](O)C(=O)NCCCO
  HPGD inh = -8%

(12) CC(C)(C)NCC(O)COc1cccc2c1CC(O)C(O)C2 (stereo not drawn)
  HPGD inh = 0%

(13) Nc1ncnc2c1c(-c1ccc(Oc3ccccc3)cc1)cn2C1CCCC1
  HPGD inh = ?

(14) CC(=O)Oc1ccc2c(C)cc(=O)oc2c1
  HPGD inh = -7%

(15) CN(C)C/C=C(\c1ccc(Br)cc1)c1cccnc1
  HPGD inh = -14%&-6%

(16) CCCC(=O)O[C@]1(C(=O)COC(C)=O)CC[C@H]2[C@@H]3C[C@H](F)C4=CC(=O)C=C[C@]4(C)[C@@]3(F)[C@@H](O)C[C@@]21C
  HPGD inh = -8%

(17) CCC1(O)CC2CN(CCc3c([nH]c4ccccc34)[C@@](C(=O)OC)(c3cc4c(cc3OC)N(C)C3[C@]45CCN4CC=C[C@@](CC)([C@@H](OC(C)=O)[C@]3(O)C(=O)OC)[C@H]45)C2)C1 (stereo partly drawn)
  HPGD inh = -5%

(18) CN(C(=O)c1c(O)c2ccccc2n(C)c1=O)c1ccccc1
  HPGD inh = -19%

(19) CCCCC(CC)COC(=O)c1ccccc1O (stereo not drawn)
  HPGD inh = -4%

(20) CC(C)(C)NCC(O)COc1cccc2c1C[C@H](O)[C@H](O)C2 (stereo partly drawn)
  HPGD inh = -3%

(21) COc1cc(C2Oc3cc(C4Oc5cc(O)cc(O)c5C(=O)C4O)ccc3OC2CO)ccc1O (stereo not drawn)
  HPGD inh = -21%

(22) CCn1cc(C(=O)O)c(=O)c2cc(F)c(N3CCNC(C)C3)c(F)c21 (stereo not drawn)
  HPGD inh = ?

(23) O=C(c1ccc(F)cc1)C1CCN(CCn2c(=O)[nH]c3ccccc3c2=O)CC1
  HPGD inh = 7.9µM*

(24) Cc1ccsc1/C=C\C1=NCCCN1C
  HPGD inh = -8%

(25) CCCCCCCCCCCCCCC[C@@H](O)[C@@H](N)CO
  HPGD inh = -7%&-8%

Screen by screen, from the results shown:
Compounds 14–25 in HPGD inh read -7%, -14%&-6%, -8%, -5%, -19%, -4%, -3%, -21%, ?, 7.9µM*, -8%, -7%&-8%

Continuation:
(26) CCCCN(CCCC)CCCOC(=O)c1ccc(N)cc1
  HPGD inh = -2%&-8%&-3%

(27) O=C1c2c(O)ccc(O)c2C(=O)c2c(NCCNCCO)ccc(NCCNCCO)c21
  HPGD inh = -6%&-9%&1%

(28) CCCOc1ccc(C(=O)OCCN(CC)CC)cc1N
  HPGD inh = -10%

(29) CN[C@@H]1[C@H](O)[C@H](NC)[C@H]2O[C@@]3(O)C(=O)C[C@@H](C)O[C@H]3O[C@@H]2[C@H]1O
  HPGD inh = -5%&-6%

(30) CCN(CC)CCOc1ccc(Cc2ccccc2)cc1
  HPGD inh = -14%

(31) COC(=O)c1ccccc1O
  HPGD inh = -2%

(32) CC(Cc1cccc(C(F)(F)F)c1)NCCOC(=O)c1ccccc1 (stereo not drawn)
  HPGD inh = -3%

(33) Cc1cc(Cn2cnc3c2C[C@@H](C(=O)O)N(C(=O)C(c2ccccc2)c2ccccc2)C3)ccc1N(C)C
  HPGD inh = -7%

(34) CCC1OC(=O)C[C@H](O)C(C)[C@@H](O[C@@H]2OC(C)C(O)C(N(C)C)C2O)C(CCN2CC(C)CC(C)C2)CC(C)C(=O)/C=C/C(C)=C\[C@@H]1COC1OC(C)C(O)C(OC)C1OC (stereo partly drawn)
  HPGD inh = -8%

(35) CCCC(=O)O[C@]1(C(=O)CCl)[C@@H](C)C[C@H]2[C@@H]3CCC4=CC(=O)C=C[C@]4(C)[C@@]3(F)C(=O)C[C@@]21C
  HPGD inh = -6%

(36) COc1ccc(C(=O)c2ccccc2)c(O)c1
  HPGD inh = 16µM*!

(37) Cc1ccccc1OCC(O)CO (stereo not drawn)
  HPGD inh = -26%

(38) N=c1nc(N2CCCCC2)cc(N)n1O
  HPGD inh = -5%&-7%&-5%&-12%&-6%

(39) Cc1scc2c1N(C(=O)CN1CCN(C)CC1)c1ccccc1NC2=O
  HPGD inh = -17%&-11%&-1%&3%

(40) Cc1onc(-c2ccccc2Cl)c1C(=O)N[C@H]1C(=O)N2[C@H]1SC(C)(C)[C@H]2C(=O)O
  HPGD inh = 0%

(41) CC1CCC2(C(=O)O)CCC3(C)C(=CCC4C3(C)CCC3[C@@]4(C)CC(O)C(O)[C@@]3(C)CO)C2C1C (stereo partly drawn)
  HPGD inh = -3%

(42) CCCOc1ccc2nc(NC(=O)OC)[nH]c2c1
  HPGD inh = -13%&-7%

(43) C[C@@]12CC[C@H]3[C@@H](CCC4=CC(=O)CC[C@]43C)[C@H]1CC[C@H]2C(=O)CO
  HPGD inh = -6%

(44) CCCCNCC
  HPGD inh = -2%

(45) CCc1cccc(CC)c1NC(=O)CN(CC(=O)O)CC(=O)O
  HPGD inh = 5%

(46) CCCCCCCCCCCCCCCC(O)C(N)CO (stereo not drawn)
  HPGD inh = -8%

(47) C[C@@H]1CC[C@]2(C(=O)O)CC[C@]3(C)C(=CCC4[C@@]5(C)C[C@@H](O)[C@H](O)[C@@](C)(CO)C5CC[C@]43C)C2[C@H]1C (stereo partly drawn)
  HPGD inh = -15%

(48) Nc1c2ccccc2nc2ccccc12
  HPGD inh = ?

(49) COc1ccc(-c2cc(C(F)F)nn2-c2ccc(S(N)(=O)=O)cc2)cc1F
  HPGD inh = -18%

(50) O=C(O)c1cc(=O)c2ccccc2o1
  HPGD inh = -28%

An excerpt of these results, with the structure last:
item	HPGD inh	molecule
1	?	COc1cc2nc(N3CCN(C(=O)[C@@H]4COc5ccccc5O4)CC3)nc(N)c2cc1OC
2	-7%	COc1cc(N)c(Cl)cc1C(=O)N[C@H]1CCN(CCCOc2ccc(F)cc2)C[C@H]1OC
3	?	Cc1cc(=O)oc2cc(O)ccc12
4	-4%	C=Cc1ccccc1
5	10µM*	C=C1c2cccc(O)c2C(O)=C2C(=O)[C@@]3(O)C(O)=C(C(N)=O)C(=O)[C@@H](N(C)C)[C@@H]3[C@@H](O)[C@H]12
6	-2%	CC1(C)O[C@@H]2C[C@H]3[C@@H]4C[C@H](F)C5=CC(=O)C=C[C@]5(C)[C@@]4(F)[C@@H](O)C[C@]3(C)[C@]2(C(=O)CO)O1
7	-8%&-22%	Cn1ccc2cc3c(cc21)CCN3C(=O)Nc1cccnc1
8	-4%	CCCCOc1cc(C(=O)OCCN(CC)CC)ccc1N
9	-11%	CCc1ccccc1OC[C@@H](O)CN[C@H]1CCCc2ccccc21
10	-14%&1%&-13%	CC[C@@]12CCCN3CCc4c(n(c5ccccc45)[C@](O)(C(=O)OC)C1)[C@H]32
11	-8%	CC(C)(CO)[C@H](O)C(=O)NCCCO
12	0%	CC(C)(C)NCC(O)COc1cccc2c1CC(O)C(O)C2 (stereo not drawn)
13	?	Nc1ncnc2c1c(-c1ccc(Oc3ccccc3)cc1)cn2C1CCCC1
14	-7%	CC(=O)Oc1ccc2c(C)cc(=O)oc2c1
15	-14%&-6%	CN(C)C/C=C(\c1ccc(Br)cc1)c1cccnc1
16	-8%	CCCC(=O)O[C@]1(C(=O)COC(C)=O)CC[C@H]2[C@@H]3C[C@H](F)C4=CC(=O)C=C[C@]4(C)[C@@]3(F)[C@@H](O)C[C@@]21C
17	-5%	CCC1(O)CC2CN(CCc3c([nH]c4ccccc34)[C@@](C(=O)OC)(c3cc4c(cc3OC)N(C)C3[C@]45CCN4CC=C[C@@](CC)([C@@H](OC(C)=O)[C@]3(O)C(=O)OC)[C@H]45)C2)C1 (stereo partly drawn)
18	-19%	CN(C(=O)c1c(O)c2ccccc2n(C)c1=O)c1ccccc1

New compounds follow
(51) CCN(CCCCOC(=O)c1ccc(OC)c(OC)c1)C(C)Cc1ccc(OC)cc1 (stereo not drawn)
  HPGD inh = 0%&-2%

(52) CC1(C)[C@@H](O[C@H]2O[C@H](C(=O)O)[C@@H](O)[C@H](O)[C@H]2O[C@@H]2O[C@H](C(=O)O)[C@@H](O)[C@H](O)[C@H]2O)CC[C@]2(C)[C@H]3C(=O)C=C4[C@@H]5C[C@@](C)(C(=O)O)CC[C@]5(C)CC[C@@]4(C)[C@]3(C)CC[C@@H]12
  HPGD inh = 0%

(53) COc1cc(C=O)ccc1O
  HPGD inh = -15%

(54) CC(C)NNC(=O)c1ccncc1
  HPGD inh = ?
